PMP22 txn prim: modulators of PMP22 gene transcription in S16 Schwann cells; Potency, µM (highest dose often 57.5 µM), for the others: at the top dose activity change, negative = inhibition, hits mostly inhibitors; S16 Pmp22-F2sN Schwann cells (luciferase reporters placed in the Pmp22 gene), FLuc/NLuc coincidence luminescence, 24 h; AID 1508649; actives 2% (n = 43,000); active = clear falling dose curves in both reporters; inconclusive = both reporters move, but less clearly or upward; inactive = either reporter flat; the % is the NLuc reporter signal; note: % is set by controls: 0 for no effect and ±100 for the full control effect; some results filed as inactive show a strong effect at the top dose
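S16 Schwann cells carrying FLuc/NLuc coincidence reporter in the Pmp22 3' UTR treated with compound 24 h at 37C; FLuc then NLuc luminescence read sequentially by dual-luciferase reagents.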
HTT prom inh: inhibitors of huntingtin promoter activity; HEK293 HTT promoter firefly luciferase reporter (activity 0% = vehicle and -100% = no light), 24 h; Potency, µM (series often up to 57.5 µM), inactives show at the highest dose activity change, negative = inhibition, actives largely listed as inhibitors; actives 0.93% (n = 48,000); active = well fitted inhibition curve with a large enough effect; inconclusive = small, poorly fitted or top-dose-only effect; inactive = no such curve, though single readings can be large or run the other way; note: nearly all actives have a fitted effect of over 50% in size
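Firefly luciferase readout (Dual-Glo, 10 min RT) after 24 h, 37 °C compound exposure (final up to 57.5 uM) of HEK293 reporter cells cultured 24 h beforehand; PTC124 at 50 uM final as control inhibitor; activity scaled vehicle 0%, zero RLU -100%.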
An asterisk follows results filed as active; ? = inconclusive; · = no result given; [ ] = remark or other dose. Potency is the fitted concentration of half-maximal effect.

SMILES	PMP22 txn prim	HTT prom inh
Cc1ccc(CNC(=O)CCCn2c(=O)[nH]c3ccc(Br)cc3c2=O)cc1	-35%	8%
CC(=O)N1c2ccc(S(=O)(=O)NCC3CCC(C(=O)NC(C)(C)C)CC3)cc2CC1C (centres undefined)	-9%	-3%
Cn1c(=O)c2c(c3ccccc31)OC(=O)CC2c1ccccc1 (centres undefined)	-6%	-6%
Cc1ccccc1Cn1nnc2c(=O)[nH]c(C3CCCN(C(=O)c4ccc(F)cc4)C3)nc21 (centres undefined)	9%	-17%
CCCNC(=O)N1CCCN(S(=O)(=O)c2ccc3c(ccn3CC)c2)CC1	-27%	-32%
CNc1ccc(-c2nc(-c3ccccc3C)no2)cc1[N+](=O)[O-]	19%	49%[activator]
CCc1cc2c(cc3c(=O)n(CC(=O)NCc4cc(Br)ccc4OC)ncn32)s1	-20%	-3%
O=C(CSc1ncccc1C(=O)Oc1ccccc1Cl)Nc1ccc(C(F)(F)F)cc1Cl	-102%	19%
O=C(Nc1ccc2nc(SCCOc3ccccc3)sc2c1)c1cccs1	-23%	?
CC1=C(C(N)=O)C(c2ccc(C)cc2)n2nc(SCc3ccccc3)nc2N1 (centres undefined)	-14%	-12%
Cc1cccc(N2CCN(C(=O)CCNS(=O)(=O)c3ccc4c(c3)CCN4C(=O)C3CC3)CC2C)c1 (centres undefined)	?	?
Cc1ccc(-n2c(SCC(N)=O)nc3c(oc4ccccc43)c2=O)cc1C	?	-6%
CCCN(C(=O)c1sc2nc3n(c(=O)c2c1C)CCCC3)c1ccccc1C	?	?
CC1CCN(S(=O)(=O)c2ccc3ncn(CC(=O)Nc4ccccc4C(F)(F)F)c(=O)c3c2)CC1	?	-29%
Cc1ccc(CN2CCCn3nc(C(=O)NCC(C)c4ccccc4)cc3C2=O)cc1 (centres undefined)	16%	?
COCCCNC(=O)Cn1nc(N2CCN(c3ccccc3)CC2)ccc1=O	-3%	2%
COc1ccc(C2c3c(-c4ccccc4O)n[nH]c3C(=O)N2Cc2ccco2)cc1 (centres undefined)	-24%	?
COc1ccc(NC(=O)CSc2nc(-c3ccco3)cc(C(F)(F)F)n2)cc1OC	?	2.2µM*
CCc1ccc(N2CC(c3nc4ccccc4n3Cc3ccccc3C)CC2=O)cc1 (centres undefined)	?	?
Cc1ccc(NC(=O)c2cc3c(Cl)nc4ccc(C)cc4c3s2)c(Cl)c1	0%	-8%
COc1ccc(NC(=O)CN2CCN(CC(=O)Nc3ccccc3F)CC2)cc1OC	6%	-22%
NC(=O)c1cccc(N)c1	·	6%
Cc1ccc(C)c(N2CCN(C(=O)CCS(=O)(=O)c3ccc4c(c3)oc(=O)n4C)CC2)c1	?	?
Cc1ccc(C(=O)NCC(c2cccnc2)N2CCc3ccccc3C2)cc1C (centres undefined)	?	?
Cc1nc2nc(SCC(=O)Nc3ccccc3Cl)nn2c(C)c1Cc1ccccc1	-12%	-15%

Arranged by number of heavy atoms (low to high): 3 of the compounds above
SMILES	PMP22 txn prim	HTT prom inh
CNc1ccc(-c2nc(-c3ccccc3C)no2)cc1[N+](=O)[O-]	19%	49%[activator]
COc1ccc(NC(=O)CN2CCN(CC(=O)Nc3ccccc3F)CC2)cc1OC	6%	-22%
Cc1ccc(C)c(N2CCN(C(=O)CCS(=O)(=O)c3ccc4c(c3)oc(=O)n4C)CC2)c1	?	?

Continued:
SMILES	PMP22 txn prim	HTT prom inh
CCc1nnc(NC(=O)CSc2nccn2Cc2ccc(F)cc2)s1	-15%	-7%
Cc1cc(=O)[nH]c(=S)[nH]1	·	1%
COC(=O)c1ccc(C(=O)OC)c(NC(=O)c2cc3nc(-c4ccc(C)cc4)cc(C(F)(F)F)n3n2)c1	11%	-11%[11.5 µM]
COc1ccc(-c2noc(-c3ccc(NC4CCCC4)c([N+](=O)[O-])c3)n2)cc1	9%	-12%
CCc1ccc2oc(C(=O)Nc3c(C)n(C)n(-c4ccccc4)c3=O)cc(=O)c2c1	-6%	-14%[11.5 µM]
CC(Cc1ccccc1)(NC(=O)CN)c1ccccc1 (centres undefined)	·	-2%
COc1cc(OC)cc(C(=O)Nc2ccc3nc(Nc4cccc(C(F)(F)F)c4)cc(C)c3c2)c1	?	?
COc1cc(OC)cc(C(=O)Nc2ccccc2-c2nc3ccccc3s2)c1	-8%	17%
Cn1c2ccc(F)cc2c2nnc(SCCN3CCCCC3)nc21	?	-3%
CCOc1ccc(CCNC(=O)CSc2n[nH]c(-c3ccccc3)n2)cc1OCC	-12%	1%
CCOC(=O)c1ccc(CN(Cc2ccccc2C)S(=O)(=O)c2ccc(F)c(C(=O)Nc3cccc(OC)c3)c2)cc1	-1%	-23%
O=C(CN1C(=O)CCc2cc(S(=O)(=O)N3CCOCC3)ccc21)NCc1ccc(F)cc1	40%	-32%
CCC(Sc1ncc(S(=O)(=O)c2ccc(Cl)cc2)c(=O)[nH]1)C(=O)Nc1ccc(OC)cc1 (centres undefined)	-33%	-11%
CC(=O)[C@]1(O)Cc2c(O)c3c(c(O)c2[C@@H](O[C@H]2C[C@H](N)[C@H](O)[C@H](C)O2)C1)C(=O)c1ccccc1C3=O	·	-40%
COc1ccc(S(=O)(=O)N(CC(=O)Nc2ccc(F)c(Cl)c2)c2ccc(C)cc2)cc1OC	-16%	-29%
CCc1nnc(SCc2cc(C)ccc2C)c2cc3sc(C)cc3n12	-28%	-20%
Cc1cc(C)c(S(=O)(=O)Nc2ccc3oc4c(c3c2)C(=O)CC(C)(C)C4)cc1C	-18%	?
Cc1cccc(C)c1Nc1nn2c(=O)c3cc4c(cc3nc2s1)OCO4	?	-7%
Cc1cc(C)c(NC(=O)CN(C)S(=O)(=O)c2ccc3c(c2)CCC(=O)N3)c(C)c1	8%	-6%
COc1ccc(S(=O)(=O)NCCc2sc(-c3cccnc3)nc2C)cc1	-9%	-8%
COc1cccc(C(=O)Nc2cccc(C(=O)OCc3cc(=O)n4c5c(sc4n3)CCCC5)c2)c1	-20%	-23%
COc1ccc(OCC2c3cc(OC)c(OC)cc3CCN2C(=O)c2c(F)cccc2F)cc1 (centres undefined)	-2%	-25%
CCS(=O)(=O)N1CC(=O)N(c2ccccc2C)C(C)(C(=O)NC2CCCCC2)C1 (centres undefined)	1%	-2%
O=C(CN1C(=O)CCn2nc(-c3ccccc3)cc21)NCc1ccc(Cl)cc1	-6%	?
Cc1ccc(NC(=O)CN2C(=O)CC(c3ccco3)Sc3ccccc32)cc1Cl (centres undefined)	-21%	-14%

Four compounds picked at random from those above:
SMILES	PMP22 txn prim	HTT prom inh
COC(=O)c1ccc(C(=O)OC)c(NC(=O)c2cc3nc(-c4ccc(C)cc4)cc(C(F)(F)F)n3n2)c1	11%	-11%[11.5 µM]
COc1ccc(-c2noc(-c3ccc(NC4CCCC4)c([N+](=O)[O-])c3)n2)cc1	9%	-12%
CCS(=O)(=O)N1CC(=O)N(c2ccccc2C)C(C)(C(=O)NC2CCCCC2)C1 (centres undefined)	1%	-2%
Cc1cc(C)c(S(=O)(=O)Nc2ccc3oc4c(c3c2)C(=O)CC(C)(C)C4)cc1C	-18%	?

Next compounds follow:
SMILES	PMP22 txn prim	HTT prom inh
O=C(Cn1c(=O)oc2cc(S(=O)(=O)NCc3ccccc3)ccc21)Nc1cccc(F)c1	-17%	-31%
CCn1ccnc1CC1COc2ccccc2O1 (centres undefined)	·	17%
Cc1c(Cl)cccc1NC(=O)Cn1cc(C(=O)c2cccs2)c2ccccc21	8.9µM*	?
CCOC(=O)c1cc2c(=O)n3ccccc3nc2n(C)c1=NC(=O)c1c(-c2c(F)cccc2Cl)noc1C	2.1µM*	-8%
COc1cccc(CNC(=O)c2oc3c(c2C)-c2nn(Cc4cccc(Cl)c4)cc2CC3)c1	-52%	?
Cc1cccc(NC(c2cccc(Cl)c2)c2ccc3cccnc3c2O)n1 (centres undefined)	?	10µM*
COc1ccc(Cl)cc1NC(=O)c1cc(=O)c2cc(C)cc(C)c2o1	0%	9%[11.5 µM]
Cc1cccc(-n2ncc3c(NNC(=O)c4ccccc4Cl)ncnc32)c1	?	-26%
CSc1nc2sc3c(c2c(=O)n1-c1ccc(C)cc1)CCCC3	14µM*	-6%
Cc1cccc(CSc2ncccc2C(=O)O)c1	12%	27%
COc1ccc(C2CC(=O)N(Cc3ccc(F)cc3)c3ccccc3S2)cc1OC (centres undefined)	?	-8%
O=C(O)C1=CC(O)C(O)[C@H](O)C1 (some centres undefined)	·	-7%
Cc1ccc(CN(Cc2ccco2)C(=O)c2ccc(Cl)cc2Cl)cc1	-22%	?
COc1ccc2[nH]cc(CCNC(=O)Nc3ccccc3)c2c1	-48%	-10%
COc1ccccc1CN(Cc1ccco1)c1cnc(S(C)(=O)=O)nc1C(=O)Nc1cc(C)ccc1C	-12%	-20%
CCC(=O)N1CCc2cc(Br)cc(S(=O)(=O)CCC(=O)N3CCN(c4cccc(C)c4)C(C)C3)c21 (centres undefined)	?	-13%
c1ccc2c(Cc3c[nH]c4ccccc34)c[nH]c2c1	·	?
COc1cc(-c2noc(-c3ccc(NC4CCCCC4)c([N+](=O)[O-])c3)n2)cc(OC)c1OC	-14%	-8%
CCN(CCCNC(=O)CN1N=C(c2ccccc2)CCC1=O)c1cccc(C)c1	?	?
O=C(Cn1nc(N2CCN(c3ccccc3)CC2)ccc1=O)NCc1cccc(Cl)c1	13%	-4%
COc1ccc(Cl)c(Cn2c(NCCN)nc3c2c(=O)n(C)c(=O)n3C)c1	2%	-10%
CC(=O)Nc1ccc(Nc2ncnc3c2c(-c2ccccc2)cn3-c2ccccc2)cc1	?	?
COc1cccc(NC(=O)c2sc(-n3nc(C)c(Cc4ccccc4Cl)c3C)nc2C)c1	-6%	-6%
CCOC(=O)c1c(C)[nH]c(C)c1S(=O)(=O)NCC(=O)NCc1cccc(Br)c1	-9%	-22%
COc1ccc(C(=O)Nc2ccc3nc(SCC(=O)N4CCCc5ccccc54)sc3c2)cc1	-22%	?
Cc1cc(N2CCC(C(=O)Nc3ccc(F)cc3C)CC2)n2nc(C)c(-c3ccc(Cl)cc3)c2n1	-14%	8%
Brc1csc(CN2CCc3nc(Nc4ccccc4)ncc3C2)c1	-50%	1%
CCn1c(C(=O)Nc2cc(C)cc(C)c2)cc2sc(Cl)cc21	2%	-22%
CCCn1c2ccccc2c2cnn(CC(=O)NCCc3ccc(OCC)c(OCC)c3)c(=O)c21	-4%	?
CC(C)c1ccc(Nc2cc(C(=O)NC3CCCCC3)c3ccccc3n2)cc1	2%	0%
COc1ccc(CCNC(=O)c2cn(C)c3ccc(S(=O)(=O)N4CCOCC4)cc3c2=O)cc1OC	4%	14%
CCOc1cc(CNC(=O)c2ccc3c(c2)N(C)C(=O)C2CCCCN32)ccc1OC (centres undefined)	?	10%
O=c1c2oc3ccccc3c2n(Cc2ccccc2)c(=O)n1Cc1ccc2c(c1)OCO2	-20%	-3%
Cn1nnnc1SCCCNCc1cc(Br)ccc1OCc1ccccc1	?	?
CCOC(=O)CN1C(C(=O)c2ccccc2)=C(OC(=O)C(C)(C)C)c2ccccc2S1(=O)=O	?	6%
CCC(=O)N1CCc2cc(S(=O)(=O)NCCC(=O)Nc3ccc(OC)c(Cl)c3)ccc21	-73%	-10%
Cc1ccc(-c2noc(-c3ccc(N4CCCCC4C)c([N+](=O)[O-])c3)n2)cc1 (centres undefined)	-1%	-20%
COc1ccc(CC(=O)NCC(c2ccc(N(C)C)cc2)N2CCOCC2)cc1 (centres undefined)	-10%	-5%
Cc1ccc(S(=O)(=O)c2cn(CC(=O)Nc3cccc(C)c3)c3cc4c(cc3c2=O)OCO4)cc1	1%	-11%
O=C(Cn1c(=O)n(Cc2ccccc2)c(=O)c2sc3ccccc3c21)NCc1ccccc1Cl	?	-15%
CCn1c(=O)n(CC)c2cc(N3CCCCC3)c(NC(=O)Nc3cc(C)cc(C)c3)cc21	-30%	?
COc1ccc(-c2nc3c(c(SCC(=O)N4CCCCC4)n2)Cc2cc(Cl)ccc2O3)cc1	4%	-9%
CCn1cc2nc(SCc3cccc(OC)c3)n(Cc3ccc(Cl)cc3)c(=O)c2n1	-25%	?
CCc1cccc(NC(=O)COC(=O)c2cn(CC)c3nc(C)ccc3c2=O)c1	-38%	-6%
COc1ccc(C2NC(=O)c3c(sc4c3CCN(C)C4)N2)cc1O (centres undefined)	1%	4%
Cc1nc(-c2cccc(F)c2)sc1CCNC(=O)c1ccc(F)c(F)c1	?	-29%
Cc1ccc2[nH]c3c(=O)n(CC(=O)NCCCN4CCN(c5ccc(F)cc5)CC4)ncc3c2c1	?	6%
Cc1ccc(CNC(=O)c2nnn(Cc3ccc(F)cc3)c2N)cc1	-11%	-12%
COc1ccc(NC(=O)Cn2c(=O)n(-c3ccc(OC)c(OC)c3)c(=O)c3ccccc32)cc1	19%	-18%
[O-][n+]1cccc(/C(Cl)=N/OC[C@@H](O)CN2CCCCC2)c1	·	2%

Rows are unselected; about 2.6% have a hit in one of these screens.
